# Arbovirus anti: antivirals against arbovirus infection, primary screen, cell-based, full library, 10K replicate subset; arbovirus infection cell-based antiviral screen; inhibition, % at 10 µM; 200,000 compounds, 0.37% hits;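 active = inhibition from about 30%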;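 also: bluetongue infection of BSR cells; cell survival read as ATP light after 72 h; 0% = infected wells without compound and 100% = uninfected wells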
# Mtb H37Rv: M. tuberculosis H37Rv growth inhibitors, H37Rv strain (AID 1626); M. tuberculosis H37Rv growth inhibition; higher % means a stronger effect; inhibition, % at 10 µM, or IC50 in µM where a hit was titrated; 220,000 compounds, 0.95% hits;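 active = confirmed in a dose series; inconclusive = inhibition above 80% but not taken into the dose series; inactive = below 80% or under 30% at every dose of the series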;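 also: bacteria incubated seven days before Alamar blue readout; 0% = bacteria only wells and 100% = bacteria with antibiotic wells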
# RecA intein inh: Mtb RecA intein splicing inhibitors, primary screen, biochemical, fluorescence, HTS; cell-free RecA intein splicing; inhibition, %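 (about 9 µM by stock and volumes)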; 290,000 compounds, 0.75% hits; AID 2221, 2009; in the data active = inhibition above about 30%; inconclusive = no clear call, values can overlap the other calls;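 also: 0% = vehicle wells and 100% = reference inhibitor control wells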
# Target sequence (P9WHJ3 whole entry, looked up): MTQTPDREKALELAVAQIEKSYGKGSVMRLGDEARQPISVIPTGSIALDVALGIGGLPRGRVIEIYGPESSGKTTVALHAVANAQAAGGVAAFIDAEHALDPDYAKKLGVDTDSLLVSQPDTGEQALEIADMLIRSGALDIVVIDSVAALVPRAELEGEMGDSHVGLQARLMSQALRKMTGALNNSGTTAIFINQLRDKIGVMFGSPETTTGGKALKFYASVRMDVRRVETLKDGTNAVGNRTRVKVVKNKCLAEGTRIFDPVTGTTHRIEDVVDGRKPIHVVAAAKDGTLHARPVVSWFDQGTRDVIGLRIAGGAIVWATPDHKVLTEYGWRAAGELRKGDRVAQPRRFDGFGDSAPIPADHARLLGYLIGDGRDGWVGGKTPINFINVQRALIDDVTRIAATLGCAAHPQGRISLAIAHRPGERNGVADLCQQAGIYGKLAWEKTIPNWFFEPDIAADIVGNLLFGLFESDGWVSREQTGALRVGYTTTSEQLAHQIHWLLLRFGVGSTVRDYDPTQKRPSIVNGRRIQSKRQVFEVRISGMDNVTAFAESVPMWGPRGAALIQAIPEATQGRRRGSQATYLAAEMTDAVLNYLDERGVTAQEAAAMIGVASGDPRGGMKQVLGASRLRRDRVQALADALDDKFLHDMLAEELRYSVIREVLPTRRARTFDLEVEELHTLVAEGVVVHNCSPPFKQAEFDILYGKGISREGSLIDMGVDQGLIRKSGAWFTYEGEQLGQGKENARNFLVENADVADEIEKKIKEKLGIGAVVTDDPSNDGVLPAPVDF
# Mtb betalactam: beta-lactam sensitization of Mtb H37Rv, H37Rv; M. tuberculosis H37Rv growth with meropenem, percent inhibition; hits of this screen are not shown here; inhibition, % at 25 µM; 330,000 compounds, 0.27% hits; AID 434955, 2010;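 active = about 74% or more and at least 40 points above the plate without the antibiotic, then above 30% in a dose series; inconclusive = first-round hits that could not be retested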;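 also: growth measured after seven days incubation then overnight dye step; 0% = bacteria only wells and 100% = bacteria with antibiotic; twin plates without the antibiotic show which effects depend on it; some results filed as inactive read as strong as hits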
# YopH PTP inh: YopH tyrosine phosphatase inhibitors, primary screen, biochemical, fluorescence Ex485/Em525. 140,000 compounds, 0.16% hits. inhibition, %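 (about 10 µM by stock and volumes)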. AID 898, 2007;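 active = inhibition of 50% or more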;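 also: controls were vehicle for no effect and minimum signal wells for full effect; inactives centre near -20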
# Arbovirus anti repeat: second read-out of Arbovirus anti, no call of its own (marks repeat the call); inhibition, %; measured here: 10K subset replicate screen; many hits read low in the repeat;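 first of two repeat runs on a subset; 0% = infected and 100% = uninfected wells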
# * hit, by the source's call; ? = inconclusive; . = no result given. An excerpt; rates above refer to the full screens.
SMILES,Arbovirus anti,Mtb H37Rv,RecA intein inh,Mtb betalactam,YopH PTP inh,others
O=C(Nc1ccc(OCC(=O)N2CCC(Cc3ccccc3)CC2)cc1)c1ccco1,-1.2,25.4%,2.6,9.7,-26.3,
CC1=NN(C(N)=S)C(=O)C1N=Nc1c(Br)cc(Br)cc1Br (stereo not given),.,.,7.1,15.2,.,
CCN(CC(=O)NCc1cccs1)c1nnnn1-c1ccccc1,-14.7,-8.7%,1.5,4.5,-7.8,
COc1ccc(S(=O)(=O)NCC2CCCN(C(=O)c3cccnc3C)C2)cc1 (stereo not given),1.0,-11.3%,-1.4,0.9,.,
CCOC(=O)C(NCc1ccccc1OC)(NC(C)=O)C(F)(F)F (stereo not given),-9.1,-4.0%,-4.2,2.8,-113.7,
Cc1ccc(S(=O)(=O)N2CC(C)C(=O)CC2C)cc1 (stereo not given),.,.,5.8,1.4,.,
Cc1cccc(NC(=O)CNC(=O)COC(=O)CCS(=O)(=O)c2ccccc2)c1C,.,.,3.2,-7.9,.,
CCc1nnc(SC(C)C(=O)Nc2nccs2)n1C (stereo not given),.,.,0.7,11.4,.,
COc1ccc(CC(=O)OCC(=O)N(CC(C)C)c2c(N)n(Cc3ccccc3)c(=O)[nH]c2=O)cc1,.,.,3.4,-13.8,.,
COCCN1C=C2C(=O)C(C)(OC(=O)C3CCCC3)C(=O)C(c3ccccc3)=C2C=C1CCCC(=O)OC (stereo not given),.,-3.4%,18.7,-1.4,.,
CCCCN(CC)Cc1ccc(CNC(=O)Nc2ccccc2)o1,3.4,-1.3%,-0.7,-13.2,-19.0,
COC(=O)c1ccc(CSc2nnc(CNC(=O)c3ccccc3F)o2)o1,-1.9,-2.9%,2.6,5.9,-16.3,
C(=C1/CCCC2=C1Nc1ncnn1C2c1ccccc1)/c1ccccc1 (stereo not given),-36.9,56.1%,6.9,88.4,-43.1,
COc1ccc(N(CC(=O)Nc2cccc(C)c2)S(=O)(=O)c2c(C)n[nH]c2C)cc1,0.1,-0.8%,3.4,-5.6,-36.4,
CSc1nsc(/C=C/Nc2ccc(O)cc2C)c1C#N,-19.4,68.8%,8.9,93.0,.,
NS(=O)(=O)c1ccc(N2CCCCCC2)c([N+](=O)[O-])c1,-0.6,-16.2%,1.1,-5.5,.,
Cc1ccc(NC(=O)Nc2nnc(-c3ccncc3)s2)cc1C,-4.3,-2.0%,-0.4,5.7,.,
COC(=O)c1ccc(CSc2nnc(Nc3ccc(C)cc3)s2)o1,7.5,-4.0%,0.3,36.2,2.8,
O=C1C2ON(c3ccccc3)C(c3ccncc3)C2C(=O)N1c1ccc(N2CCOCC2)cc1 (stereo not given),5.3,-4.8%,2.5,1.1,-49.8,Arbovirus anti repeat=-0.7
CC(=O)c1cccc(NC(=O)C2C3C=CC(C3)C2C(=O)O)c1 (stereo not given),4.6,1.2%,0.0,3.0,.,
Cc1ccc(C(=O)c2cc3ccccc3o2)cc1,-6.6,13.2%,0.6,-7.3,-8.4,
Cc1ccc2oc(=O)cc(CN3CCOCC3)c2c1,12.9,-2.0%,.,-5.5,-9.1,
CCN(CC)CCCNC(=S)N1CCC(c2nc3ccccc3[nH]2)CC1,.,.,-2.0,6.7,.,
CN1CCN(c2ccccc2NC(=O)c2sc3ccccc3c2Cl)CC1,-16.2,9.4%,0.7,86.2,.,
CCN1C(=O)C(CC(=O)Nc2ccc(OC)cc2)N(CCc2ccc(F)cc2)C1=S (stereo not given),-23.9,8.0%,-0.6,4.7,.,
COc1ccc(S(=O)(=O)Nc2cccc(-c3ccc4nncn4n3)c2)c(OC)c1,.,.,-1.0,-2.5,.,
O=c1o[nH]c(-c2ccccc2)c1N=Nc1c(F)cccc1Cl,.,.,3.4,2.9,.,
COc1ccc(CCN(Cc2ccccn2)C(=S)Nc2ccccc2C)cc1OC,7.3,4.0%,1.2,-8.9,.,
O=C(c1ccco1)N1CCCN(Cc2nc(-c3ccc4c(c3)OCO4)no2)CC1,-2.6,10.8%,-0.5,3.1,.,
CCOc1ccc(N(CC(=O)NCCc2ccc(Cl)cc2)S(=O)(=O)c2c(C)[nH]c(=O)[nH]c2=O)cc1,25.1,0.5%,.,-2.7,.,
O=C(CN(C(=O)CSc1nnc(COc2ccccc2)o1)c1ccc(F)cc1)NC1CCCC1,-10.0,-5.0%,-1.4,7.9,-15.2,
Cc1ccccc1-c1nc(CS(=O)CC(=O)NCCN2CCOCC2)c(C)o1 (stereo not given),5.3,-3.8%,0.6,7.2,-22.4,Arbovirus anti repeat=1.9
CCC1=C(OC(=O)N(CC)CC)N2C(=O)OC(=NCC(=O)OC)[C@]2(C)[C@H]2C1=CC[C@H]1C(=O)N(C)C(=O)[C@H]12,.,-8.8%,0.3,-1.2,.,
Cc1ccn2c(CN3CCOCC3)c(-c3ccccc3)nc2c1,-5.0,3.8%,0.4,-0.3,-19.9,
COCCNc1nnc(SCC(=O)NC(=O)c2ccccc2OC)s1,.,.,-0.7,-10.7,.,
O=C1c2ccccc2C(Nc2ccc(F)c(Cl)c2)N1Cc1ccco1 (stereo not given),12.4,20.1%,8.3,-1.2,-24.4,Arbovirus anti repeat=-6.9
C=CCN1C(=O)NC(=O)/C(=C/c2ccc(N(C)C)c(Br)c2)C1=O,0.6,-3.8%,-0.5,-2.0,.,
COC(=O)CCC(=O)c1oc2ccccc2c1N,0.7,-0.6%,-0.7,-1.6,-39.1,
COCCNC(=O)CCc1c(C)nc2c(-c3ccc(F)cc3)c(C)nn2c1C,-4.7,-0.4%,-2.1,-5.3,2.2,
N#Cc1ccccc1OCC(=O)Nc1ccc2c(c1)OCCCO2,.,.,-3.2,2.9,.,
COc1ccc(S(=O)(=O)N2CCOC2CNC(=O)C(=O)NCC(C)C)cc1 (stereo not given),.,.,0.7,-21.0,.,
O=S(=O)(Nc1ccc2cn[nH]c2c1)c1ccccc1,2.5,4.7%,6.1,-3.8,.,
CN(C)c1cccc(C(=O)NCc2ccccc2)c1,-4.2,5.1%,-2.4,8.0,.,
Cc1nn(-c2ccccc2)c(N)c1Sc1ccccc1[N+](=O)[O-],24.1,6.7%,4.2,-4.6,-17.7,
CCOc1ccc(-c2c[n+]3c(n2-c2ccccc2)CCCCC3)cc1,18.9,7.4%,2.2,-1.3,-24.9,
O=[N+]([O-])c1ccc(Sc2n[nH]c(-c3ccco3)n2)nc1,4.1,-5.9%,2.2,4.7,.,
O=C(O)CC(CC(=O)Nc1ccc(F)c(Cl)c1)c1ccc(Cl)cc1Cl (stereo not given),.,-9.0%,3.0,-3.5,.,
CCOCCCNC(=O)CN1C(=O)c2cccc3cccc1c23,.,.,-11.5,1.4,.,
O=C(NC(=S)Nc1cccc2c(O)cccc12)c1cccc(Br)c1,.,-0.4%,2.1,-2.1,.,
CSc1ccccc1C(=O)N1CCC(n2nccc2NC(=O)C(C)(C)C)CC1,.,.,-2.5,1.9,.,

# (further entries)
SMILES,Arbovirus anti,Mtb H37Rv,RecA intein inh,Mtb betalactam,YopH PTP inh,others
COc1cc2cc(NC(C)=O)cc(NCc3ccccc3)c2cc1OC,.,.,-1.4,-1.3,.,
CC(C)c1cc(C(=O)N/N=C/c2cccnc2)n[nH]1,-12.6,-0.5%,5.2,1.2,-20.9,
Cc1ccc(OCCCCNC2CCCC(C)C2C)c(C)c1 (stereo not given),-32.6,?,1.0,98.5,.,
O=C(/C=C/c1ccccc1[N+](=O)[O-])NCCc1ccc(F)cc1,3.5,9.7%,0.4,1.7,.,
CCn1cc(/C=C(\NC(=O)c2ccccc2F)C(=O)NCCCn2ccnc2)c2ccccc21,.,.,0.3,2.8,.,
CCC1CCCCN1CCCNC(=O)CSc1nc2nc(C)c(Cc3ccc(C)cc3)c(C)n2n1 (stereo not given),.,.,2.8,1.1,.,
CC1=NCCN1S(=O)(=O)c1cc(Cl)ccc1Cl,-2.4,-7.6%,3.7,-3.8,-37.0,
COc1cc(/C=N/NC(=O)c2ccncc2)ccc1OC(=O)c1ccco1,.,.,25.4,98.4,.,
CC1CN(Cc2cc(=O)[nH]c(C(C)C)n2)CC(C)O1 (stereo not given),3.7,-4.8%,-0.8,-5.6,-24.3,
CN1CCN(c2nc3ccccn3c(=O)c2/C=C(\C#N)S(=O)(=O)c2ccc(Cl)cc2)CC1,.,4.7%,-18.7,12.1,.,
Cc1ccc(C(=O)NCC(=O)NCC(=O)OCC(=O)c2ccc(Br)cc2)cc1,5.0,-7.6%,-0.4,-0.2,-19.2,
CC(=O)N1CCN(c2ccc(Oc3ncnc4sccc34)cc2)CC1,0.5,-6.8%,-0.6,34.2,-10.1,
CCOC(=O)CC(=O)CSc1ncnc2c1cnn2-c1ccccc1,-6.2,-1.2%,3.5,-11.8,-6.2,
CC(C)(C)C(=O)N1CCN(c2ccc([N+](=O)[O-])c(NCC3CCCO3)c2)CC1 (stereo not given),-6.2,-14.6%,.,11.6,-35.5,
CC(=O)c1cccc(NC(=S)NNC(=O)c2ccco2)c1,2.6,1.9%,5.7,9.5,.,
O=C(NCc1ccncc1)C(=O)NCC(c1ccco1)N1CCN(c2ccc(F)cc2)CC1 (stereo not given),3.9,-2.3%,-1.5,1.5,-32.8,
C=CCn1c(C(O)c2ccccc2)nc2ccccc21 (stereo not given),.,.,-2.8,-1.0,.,
CCOCc1cnc(C)nc1NCC(=O)c1c(C)[nH]c2ccc(OC)cc12,5.0,-4.3%,1.0,5.4,-10.1,
Cc1nc(SCC(=O)N2CC(=O)Nc3ccccc32)nc(C)c1C,4.5,-7.9%,-0.4,-4.4,.,
O=C(COc1ccc(S(=O)(=O)NCc2ccccc2)cc1Cl)N1CCOCC1,12.4,-1.5%,-0.3,-2.5,-2.0,

# Next part, starting with the last 4 of the part before.
SMILES,Arbovirus anti,Mtb H37Rv,RecA intein inh,Mtb betalactam,YopH PTP inh,others
C=CCn1c(C(O)c2ccccc2)nc2ccccc21 (stereo not given),.,.,-2.8,-1.0,.,
CCOCc1cnc(C)nc1NCC(=O)c1c(C)[nH]c2ccc(OC)cc12,5.0,-4.3%,1.0,5.4,-10.1,
Cc1nc(SCC(=O)N2CC(=O)Nc3ccccc32)nc(C)c1C,4.5,-7.9%,-0.4,-4.4,.,
O=C(COc1ccc(S(=O)(=O)NCc2ccccc2)cc1Cl)N1CCOCC1,12.4,-1.5%,-0.3,-2.5,-2.0,
CCn1cc(/C=C(\NC(=O)c2cc(OC)c(OC)c(OC)c2)C(=O)N2CCN(C)CC2)c2ccccc21,.,.,4.3,-8.7,.,
CCOc1ccc2cc(C#N)c(SCC(=O)N3CCC(C)CC3)nc2c1,-13.8,-0.3%,-2.1,2.9,-26.8,
O=c1c(Cc2ccccc2O)c(O)nc2n1CCCS2,3.8,1.6%,-1.1,-5.1,-28.6,
CC(=O)OC(C)CS(=O)(=O)c1ccccc1 (stereo not given),16.9,-4.8%,-1.8,-3.8,.,
Cc1nc2c(C#N)c(C)[nH]n2c(=O)c1Cc1ccccc1,-1.4,-10.2%,-10.1,1.9,-9.4,
COc1cc(/C=C/C(=O)OCC(=O)NCCc2ccccc2)ccc1OC(F)F,.,.,2.1,-4.9,.,
CCOC(=O)N1CCN(C(=O)c2ccc3c(=O)n(CCc4ccccc4)c(=S)[nH]c3c2)CC1,2.4,-2.3%,0.4,0.9,-34.7,
CCN1C(=O)c2cccc3c(NC(=O)c4cccc(N5C(=O)CCC5=O)c4)ccc1c23,5.2,.,-4.2,-0.1,-20.6,
N#Cc1cc(O)c(-n2nnc3ccccc32)cc1C#N,1.5,-4.8%,1.8,-7.5,.,
CCN(CC)S(=O)(=O)c1ccc(NN=C2CCN(C(C)C)CC2)c([N+](=O)[O-])c1,.,-19.8%,-2.2,-1.5,.,
COc1cccc(COC(=O)c2ccc3c(=O)n4c(nc3c2)CCC4)c1OC,.,.,-9.0,85.6,.,
CCC(=O)N1CCc2cc(Br)cc(S(=O)(=O)NCCN3CCCCC3C)c21 (stereo not given),4.6,-7.1%,2.0,-5.3,-40.0,
O=C(Cc1ccccc1)NCC(=O)OCC(=O)c1cccc([N+](=O)[O-])c1,-2.8,-8.1%,-1.8,-7.8,-30.1,
CCN(Cc1ccccc1)C(=O)C1CCN(c2ncnc3c2nc2n3CCCCC2)CC1,.,.,1.2,3.1,.,
O=C(c1cc(-c2ccc(Cl)cc2)n[nH]1)N1CCc2ccccc2C1,.,.,-0.1,5.7,.,
Cc1ccc(C(=O)CSc2nc3ccccc3o2)cc1,0.5,4.7%,2.3,10.0,-14.2,
CC1CCc2nc3ccccc3c(C(=O)OCC(=O)N(C)C3CCS(=O)(=O)C3)c2C1 (stereo not given),3.2,-4.1%,-3.6,2.6,.,
COc1ccc(/C(N)=N/OC(=O)CSc2ccccc2)cc1OC,1.3,1.9%,4.1,-1.4,-12.7,

# Bioassay records: PubChem, several laboratories
